Bioassay records from PubChem BioAssay.
Rango complex inh = inhibitors of Rango-importin beta complex formation; Rango CFP/YFP FRET sensor + importin beta, 45 min; Potency, µM (doses to about 92.2 µM), for the others: top-dose inhibition of complex formation; hit rate 0.031% among 340,000; AID 540263; active = rising FRET ratio curve, often small or poorly fitted; inconclusive = mostly compound fluorescence or quenching in the first reads; inactive = flat curves in all reads;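 note: potency is the fitted concentration of half-maximal effect; 0% = DMSO wells and 100% = buffer wells lacking importin beta; nearly all actives have a fitted effect of over 15% in size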
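FRET biosensor Rango (snurportin 1 IBB between N-terminal EYFP and C-terminal Cerulean), 50 nM in PBS/1 mM DTT/0.02% Tween-20/0.1% BSA, preincubated 5 min RT with compound; 0.125 microM importin beta added, 45 min RT, CFP/YFP FRET ratio read.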
Rango dissoc inh = inhibitors of RanGTP-induced Rango-importin beta complex dissociation; Potency, µM (titrated, usually from 46.1 µM), for the others: at the top dose activity change, negative = inhibition; hit rate 0.071% among 340,000; Biochemical FRET Rango-importin beta, RanGTP-induced dissociation; O95149+P62826; active means falling FRET ratio curve, often poorly fitted, with flat reads before Ran was added; inconclusive means other falling curves, or compound fluorescence or quenching; inactive means flat or rising ratio curve;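 note: potency is the fitted concentration of half-maximal effect; % of control where 0% means no effect; nearly all actives have a fitted effect of over 45% in size; -100% = wells without RanGTP and RCC1; the record marks most hits as doubtful in a second field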
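Two FRET readings bracket the reaction: one 5 min after compound meets Rango–importin beta, another 45 min after RanGTP-RCC1 (0.6 uM Ran, 0.2 uM RCC1, 2 mM GTP) is added. Only the second defines inhibition.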
miR-21 FLuc = miR-21 reporter, rising signal. 340,000 tested, under 10 active. AID 2288. Potency, µM (doses to about 38.3 µM), for inactives: at the highest dose reporter change, positive = more light. HeLa miR-21 FLuc reporter, luciferase, 48 h; active = well fitted rising curve with a large enough effect; inconclusive = small, poorly fitted or top-dose-only effect; inactive = no such curve, though single readings can be large or run the other way;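 note: % of control where 0% means no effect; miR-21 action dims this reporter so a rising signal means less miR-21 action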
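HeLa cells stably expressing CMV-driven firefly luciferase with a downstream miR-21 binding sequence, endogenously expressing miR-21, were treated with titrations (up to about 40uM final) for 48 hours at 37 degree Celsius. Luciferase luminescence was read after lysis.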
GLA inh pH 4.5 = alpha-galactosidase A (human) inhibition, pH 4.5; purified enzyme, 4-MU-alpha-Gal fluorescence, pH 4.5; P06280; activity change, negative = inhibition, % at 105 µM; 230,000 tested, under 10 active; inconclusive = small, poorly fitted or top-dose-only inhibition, or a rising curve; inactive = flat fitted curve, though single readings scatter; no compound was filed as active;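 note: 0% = full activity with enzyme and -100% = basal without enzyme; dose as in the result columns while the protocol names 77 µM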
Target sequence (P06280 whole entry, looked up): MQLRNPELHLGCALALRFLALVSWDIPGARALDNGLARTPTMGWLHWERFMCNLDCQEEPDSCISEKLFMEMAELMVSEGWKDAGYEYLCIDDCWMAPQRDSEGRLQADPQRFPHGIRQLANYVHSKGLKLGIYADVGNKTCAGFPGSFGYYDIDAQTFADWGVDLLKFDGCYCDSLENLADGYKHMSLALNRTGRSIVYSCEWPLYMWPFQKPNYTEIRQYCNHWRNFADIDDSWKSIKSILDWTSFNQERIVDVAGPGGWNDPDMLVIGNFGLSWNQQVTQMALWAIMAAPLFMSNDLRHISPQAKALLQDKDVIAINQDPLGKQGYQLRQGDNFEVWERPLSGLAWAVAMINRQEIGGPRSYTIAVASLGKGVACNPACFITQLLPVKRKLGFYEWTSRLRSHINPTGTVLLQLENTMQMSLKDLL
* hit, by the source's call; [ ] = another dose, or the depositor's remark.

`Cc1ccccc1COc1ccc(/C(O)=C2/C(=O)C(=O)N(CCCn3ccnc3)C2c2ccco2)cc1` (stereo not given) gave Rango complex inh -3.8%, Rango dissoc inh -6%, miR-21 FLuc -4% and GLA inh pH 4.5 -10.
Screening CC(Nc1cc(N2CCCC2)ccc1[N+](=O)[O-])c1ccccc1 (stereo not given) returned Rango complex inh 2.8%, Rango dissoc inh 8%, miR-21 FLuc -3% and GLA inh pH 4.5 2.
`Cn1c(NC(=O)c2ccccc2C(F)(F)F)cc(=O)n(C)c1=O` gave Rango complex inh 1.0%, Rango dissoc inh 2%, miR-21 FLuc -4% and GLA inh pH 4.5 4.
For C=CCNC(=S)NNc1nc2c(c(=O)[nH]1)C1(CCCCC1)Cc1ccccc1-2 the results were Rango complex inh 0.4%, Rango dissoc inh -3%, miR-21 FLuc 11% and GLA inh pH 4.5 -7.
`O=C1C(CCCNC(=S)NCc2ccccc2)NC(=S)N1Cc1ccccc1` (stereo not given) gave Rango complex inh 2.2%, Rango dissoc inh 9%, miR-21 FLuc 2% and GLA inh pH 4.5 -10.
Screening CCn1nc(C)c(CNC(=O)C2CCC(=O)N(CCc3ccc(OC)cc3)C2)c1C (stereo not given) returned Rango complex inh -3.3%, Rango dissoc inh 7% and miR-21 FLuc -4%.
`Cc1ccccc1C(=O)NC1CCCN(Cc2ccccc2F)C1` (stereo not given) gave Rango complex inh inconclusive, Rango dissoc inh -23% and miR-21 FLuc 6%.
For COc1cccc(NC(=O)COC(=O)c2sccc2C)c1 the results were Rango complex inh 1.3% and Rango dissoc inh -1%.
Screening CCN(CC(=O)NCc1cccs1)C(=O)CCCOc1ccccc1 returned Rango complex inh 0.0% and Rango dissoc inh -4%.
Screening CCOC(=O)c1nc(-c2ccccc2)sc1C(C)=O returned Rango complex inh -1.4%, Rango dissoc inh -10%, miR-21 FLuc -24% and GLA inh pH 4.5 -3.
`COc1ccc(OCC(=O)NNC(=S)NC(=O)c2ccc([N+](=O)[O-])cc2)cc1` gave Rango complex inh -1.5%, Rango dissoc inh 25% and miR-21 FLuc 0%.
`COc1ccc(CCNC(=O)c2cc3c(=O)n4cccc(C)c4nc3n(CC3CCCO3)c2=N)cc1` (stereo not given) gave Rango complex inh inconclusive, Rango dissoc inh inconclusive and miR-21 FLuc -1%.
`CCCn1c2ccccc2c2cnn(CC(=O)NC3CCCC(C)C3C)c(=O)c21` (stereo not given) gave Rango complex inh 1.6%, Rango dissoc inh 14% and miR-21 FLuc 0%.
For CSCC[C@H](NC(=O)NCCC1=CCCCC1)C(=O)O the results were Rango complex inh -0.2%, Rango dissoc inh -11%, miR-21 FLuc -3% and GLA inh pH 4.5 4.
For Cc1ccc(S(=O)(=O)N(CC(=O)Nc2ccccc2C(=O)O)c2ccccc2)cc1 the results were Rango complex inh -3.0%, Rango dissoc inh 3%, miR-21 FLuc 1% and GLA inh pH 4.5 1.
CC(NC(=O)C1CCCN(C(=O)c2ccc(Cl)cc2)C1)c1cccc(C(F)(F)F)c1 (stereo not given) was read as Rango complex inh 0.3% and Rango dissoc inh -4%.
`CCOC(=O)C1=C(C)NC2=C(C(=O)OC2)C1c1ccccc1` (stereo not given) gave Rango complex inh 0.1%, Rango dissoc inh 7%, miR-21 FLuc 23% and GLA inh pH 4.5 14.
`COCCn1c(SCC(=O)N2CCC(C)CC2)nc2c(c1=O)SCC2` gave Rango complex inh 1.9%, Rango dissoc inh -1% and miR-21 FLuc 1%.
Screening COc1ccc(-c2ccc3c(c2)[C@@H]2C[C@H]4[C@@H](C(=O)N2CC3)[C@H](C)ON4C)cc1 returned Rango complex inh 3.5% and Rango dissoc inh 4%.
Screening Cc1cccc([N+](=O)[O-])c1NC(=O)COC(=O)c1nc2nccc(C)n2n1 returned Rango complex inh 2.9% and Rango dissoc inh 1%.
Screening CC(C)(C)c1ccc(/C=C/C(=O)N2CCCCC2)cc1 returned Rango complex inh 5.3%, Rango dissoc inh 14%, miR-21 FLuc -53% and GLA inh pH 4.5 -2.
Screening Cc1ccc(N2CC(C(=O)NC3=NCCS3)CC2=O)cc1 (stereo not given) returned Rango complex inh 0.4%, Rango dissoc inh 2%, miR-21 FLuc -2% and GLA inh pH 4.5 7.
For CCOC(=O)c1ccc(S(=O)(=O)NC2CCC(C)CC2)cc1 (stereo not given) the results were Rango complex inh 0.5% and Rango dissoc inh -4%.
CCOC(=O)C1=C(COC(=O)/C=C/c2ccccc2F)NC(=O)NC1C (stereo not given) was read as Rango complex inh 0.9% and Rango dissoc inh 9%.
For CCOC(=O)[C@@H]1[C@H]2COc3ccccc3[C@H]2N2C(=O)N(c3ccc(Cl)cc3)C(=O)[C@@]12C the results were Rango complex inh 1.6%, Rango dissoc inh -9% and miR-21 FLuc 5%.
`CCCCNC(=O)c1cc(-c2ccc(OC)c(OC)c2)on1` gave Rango complex inh -1.0%, Rango dissoc inh 2%, miR-21 FLuc -30% and GLA inh pH 4.5 3.
For Cc1c(C(=O)N2CCCC2)sc(NC(=O)c2cccc(Cl)c2)c1C#N the results were Rango complex inh inconclusive, Rango dissoc inh inconclusive, miR-21 FLuc -1% and GLA inh pH 4.5 2.
For C/C(=N/NC(=O)c1cc(-c2cccc([N+](=O)[O-])c2)n[nH]1)c1cccc(O)c1 the results were Rango complex inh 3.2%, Rango dissoc inh 1%, miR-21 FLuc -2% and GLA inh pH 4.5 8.
For NC(=O)NC(CC(=O)NCCCc1ccccc1)c1ccccc1Cl (stereo not given) the results were Rango complex inh 0.0%, Rango dissoc inh 3%, miR-21 FLuc 3% and GLA inh pH 4.5 -9[21.1 µM].
Screening Cc1ccc(S(=O)(=O)N(C)C)cc1NC(=O)COC(=O)C1CC(=O)N(c2ccc3c(c2)OCCO3)C1 (stereo not given) returned Rango complex inh -1.8% and Rango dissoc inh 11%.
CC1(C)CC(NC(=S)NC(=O)c2cc(Br)ccc2Cl)CC(C)(C)N1 was read as Rango complex inh -1.0% and Rango dissoc inh -15%.
Screening CCCCNC(=O)CCCn1c(=S)[nH]c2cc3c(cc2c1=O)OCO3 returned Rango complex inh -1.5%, Rango dissoc inh -13%, miR-21 FLuc -2% and GLA inh pH 4.5 -4.
For COc1ccccc1OC(C)C(=O)Nc1ccccc1C(=O)NCc1cccnc1 (stereo not given) the results were Rango complex inh 2.8%, Rango dissoc inh 19% and miR-21 FLuc -2%.
`O=C(Nc1c(F)cc(F)cc1Br)c1cc2nc(C(F)F)cc(C(F)F)n2n1` gave Rango complex inh -1.4%, Rango dissoc inh 2%, miR-21 FLuc -10% and GLA inh pH 4.5 0.
For CCOc1ccc(N/C=C/C(=O)c2ccc(OC)c(OC)c2)cc1 the results were Rango complex inh inconclusive, Rango dissoc inh inconclusive and miR-21 FLuc -63%.
O=c1ccnc(SCCc2ccccc2)[nH]1 was read as Rango complex inh 4.1%, Rango dissoc inh 24% and miR-21 FLuc -18%.
CC(=O)Nc1ccc(OCc2cnc(Cl)s2)cc1 was read as Rango complex inh 0.4%, Rango dissoc inh 1%, miR-21 FLuc -33% and GLA inh pH 4.5 -1.
O=C(CN1C(=O)CCC1=O)Nc1nc(-c2ccc3ccccc3c2)cs1 was read as Rango complex inh -1.0%, Rango dissoc inh -7%, miR-21 FLuc -39% and GLA inh pH 4.5 2.
`Nc1ncnc2c1ncn2[C@@H]1O[C@H](CO)[C@@H](O)[C@@H]1O` gave Rango complex inh 5.4% and Rango dissoc inh -7%.
Screening COc1cccc(C2c3[nH]c4ccccc4c3C[C@H]3C(=O)N(C4CC4)CC(=O)N23)c1 (stereo not given in full) returned Rango complex inh -3.3%, Rango dissoc inh 9% and miR-21 FLuc -5%.
O=C(COC(=O)c1ccc2c(c1)OCCO2)NCCc1ccccc1 was read as Rango complex inh -1.1% and Rango dissoc inh 9%.
`O=C(Nc1nc(-c2ccncc2)cs1)C1c2ccccc2Oc2ccccc21` gave Rango complex inh -0.7%, Rango dissoc inh 0%, miR-21 FLuc -1% and GLA inh pH 4.5 2.
CCOC(=O)Cn1nc(C)c2c1CCCC2=O was read as Rango complex inh 0.9%, Rango dissoc inh 5%, miR-21 FLuc -4% and GLA inh pH 4.5 -26.
Screening CCN(CCO)Cc1cn[nH]c1-c1ccc(C)c(C)c1 returned Rango complex inh -0.3%, Rango dissoc inh 10%, miR-21 FLuc 0% and GLA inh pH 4.5 4.
`O=C(c1ccc(-c2ccccc2)c(F)c1)C1CCCN(C(=O)c2cncs2)C1` (stereo not given) gave Rango complex inh inconclusive, Rango dissoc inh -1% and miR-21 FLuc 2%.
`COc1cc(-c2nc3n(n2)C(c2ccncc2)C2=C(CCCC2=O)N3)cc(OC)c1OC` (stereo not given) gave Rango complex inh -0.1%, Rango dissoc inh 0%, miR-21 FLuc 2% and GLA inh pH 4.5 -8.
For COc1cc(OC)cc(-c2oc(=O)c3cc(OC)c(OC)cc3c2/C=C/c2ccc(F)cc2)c1 the results were Rango complex inh -1.9% and Rango dissoc inh -14%.
Screening O=C(Nc1nc(=O)[nH]s1)c1ccccc1 returned Rango complex inh 0.2%, Rango dissoc inh -6%, miR-21 FLuc -2% and GLA inh pH 4.5 4.
`CC1CCCN(C(c2ccccc2)c2sc3ncnn3c2O)C1` (stereo not given) gave Rango complex inh -1.3%, Rango dissoc inh 2%, miR-21 FLuc 1% and GLA inh pH 4.5 2.
Clc1ccc(CO/N=C2\CCCc3nonc32)cc1 was read as Rango complex inh -1.4%, Rango dissoc inh 5%, miR-21 FLuc -38% and GLA inh pH 4.5 -7.
O=C(C[n+]1ccc(C(=O)N/N=C/c2ccc(OCc3ccccc3)cc2)cc1)c1ccccc1 was read as Rango complex inh 2.6%, Rango dissoc inh -19%, miR-21 FLuc -26% and GLA inh pH 4.5 -13.
COC(=O)C1C(=O)C(C(=O)c2ccc([N+](=O)[O-])cc2)C(=O)CC1(C)C (stereo not given) was read as Rango complex inh 0.0%, Rango dissoc inh -7% and miR-21 FLuc -2%.
For Cc1cc(Nc2cccc(Cl)c2)n2ncnc2n1 the results were Rango complex inh -1.9%, Rango dissoc inh -2%, miR-21 FLuc -28% and GLA inh pH 4.5 5.
`O=C(COC(=O)c1cccc(O)c1)Nc1ccc(N2CCOCC2)cc1` gave Rango complex inh -3.9% and Rango dissoc inh -16%.
Cc1ccc2c(CC(=O)Nc3ccc(N4CCN(C)CC4)cc3C)coc2c1 was read as Rango complex inh -0.2%, Rango dissoc inh -7%, miR-21 FLuc -31% and GLA inh pH 4.5 -9.
Cc1ccc2oc(C(=O)N(C)Cc3ccc(C)o3)c(C)c2c1 was read as Rango complex inh -0.5%, Rango dissoc inh -2% and miR-21 FLuc -46%.
O=C(Cn1c(-c2ccco2)nc2ccccc21)N1CCCCC1 was read as Rango complex inh 4.7%, Rango dissoc inh -5%, miR-21 FLuc 0% and GLA inh pH 4.5 11.
COc1ccccc1NC(=O)c1ccc(NS(=O)(=O)c2c(C)noc2C)cc1 was read as Rango complex inh 3.7%, Rango dissoc inh 8%, miR-21 FLuc -11% and GLA inh pH 4.5 -1.

In the list so far, 2 have a COOH group.
For CSCC[C@H](NC(=O)NCCC1=CCCCC1)C(=O)O the results were Rango complex inh -0.2%, Rango dissoc inh -11%, miR-21 FLuc -3% and GLA inh pH 4.5 4.
For Cc1ccc(S(=O)(=O)N(CC(=O)Nc2ccccc2C(=O)O)c2ccccc2)cc1 the results were Rango complex inh -3.0%, Rango dissoc inh 3%, miR-21 FLuc 1% and GLA inh pH 4.5 1.

Quoted from the entries so far, four compounds:
COC(=O)C1C(=O)C(C(=O)c2ccc([N+](=O)[O-])cc2)C(=O)CC1(C)C (stereo not given) was read as Rango complex inh 0.0%, Rango dissoc inh -7% and miR-21 FLuc -2%.
For Cc1cc(Nc2cccc(Cl)c2)n2ncnc2n1 the results were Rango complex inh -1.9%, Rango dissoc inh -2%, miR-21 FLuc -28% and GLA inh pH 4.5 5.
`O=C(COC(=O)c1cccc(O)c1)Nc1ccc(N2CCOCC2)cc1` gave Rango complex inh -3.9% and Rango dissoc inh -16%.
Cc1ccc2c(CC(=O)Nc3ccc(N4CCN(C)CC4)cc3C)coc2c1 was read as Rango complex inh -0.2%, Rango dissoc inh -7%, miR-21 FLuc -31% and GLA inh pH 4.5 -9.

Not all compounds are listed; the hit share may differ from the screen's.
